StopGo reporter: lowers the luciferase signal of an FMDV 2A StopGo reporter; AID 1159524; Potency, µM (series often up to 57.9 µM), without a hit: at the top dose signal change, negative = less light; human cells with a luciferase reporter of 2A StopGo recoding; control for the full effect not named in the record; 1.2% of 410,000 active; active = well fitted falling curve with a large enough effect; inconclusive = small, poorly fitted or top-dose-only effect; inactive = no such curve, though single readings can be large or run the other way; tested in HEK293T cells; also: % is scaled to controls: 0 for no effect and ±100 for the full control effect; nearly all actives have a fitted effect of over 45% in size; luciferase light after 4 h
Lassa entry inh: blocks Lassa virus binding to or entry into cells. Lassa virus pseudotype entry inhibition, cell reporter; control for the full effect not named in the record. Potency, µM (doses to about 37.9 µM), for the others: top-dose activity change, negative = inhibition, hits mostly inhibitors. 1.2% of 300,000 active; active means well fitted inhibition curve with a large enough effect; inconclusive means small, poorly fitted or top-dose-only effect, or effect the other way; inactive means flat fitted curve, though single readings scatter; tested in HEK293 cells; also: % is scaled to controls: 0 for no effect and ±100 for the full control effect; nearly all actives have a fitted effect of over 50% in size; luciferase read-out
NS1 function inh: influenza NS1 inhibition | 0.4% of 270,000 active | AID 2326 | S. cerevisiae slowed by influenza A NS1, growth recovery by OD600 | Potency, µM (top dose mostly 46.1 µM), for inactives: at the top dose activity, positive = more growth; also: actives are rising curves; nearly all actives have a fitted effect of over 50% in size
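Compounds were scored for reversing the slow growth caused by influenza A NS1 in S. cerevisiae, measured by optical density at 600 nm. Assay medium contained 2% galactose at pH 6.0; NS1-free yeast of the same strain were the positive control.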
Cruzain noTriton: blocks cruzain activity in detergent-free assay; Potency, µM, for the others: max response, negative = inhibition, hits mostly inhibitors; 2.3% of 200,000 active; purified cruzain, Z-FR-AMC fluorescence, no detergent; P25779; active = well fitted curve in the direction sought with a large enough effect; inconclusive = small, poorly fitted or top-dose-only effect, or another doubt; inactive = no such curve, though single readings can be large; an effect the other way counts as inactive or inconclusive;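 also: plate controls were enzyme without inhibitor for no effect and buffer without enzyme for full effect; nearly all actives have a fitted effect of over 40% in size; top concentration of the series not given in the record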
Target sequence (P25779 123-467 limits assumed): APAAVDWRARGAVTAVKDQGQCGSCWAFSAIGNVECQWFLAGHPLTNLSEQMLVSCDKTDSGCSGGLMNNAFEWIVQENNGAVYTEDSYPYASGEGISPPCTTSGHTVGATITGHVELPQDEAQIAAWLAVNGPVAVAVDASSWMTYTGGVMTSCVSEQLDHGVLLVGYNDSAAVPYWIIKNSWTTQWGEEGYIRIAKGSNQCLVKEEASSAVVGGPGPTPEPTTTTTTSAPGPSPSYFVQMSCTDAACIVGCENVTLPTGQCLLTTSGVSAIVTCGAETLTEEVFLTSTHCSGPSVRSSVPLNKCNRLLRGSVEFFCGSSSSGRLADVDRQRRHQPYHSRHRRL
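Purified cruzain at 1.5 nM, pre-incubated 15 min with compound at room temperature in 100 mM sodium acetate pH 5.5, 5 mM DTT, 0.00005% Triton X-100. Reaction started with 2 uM Z-FR-AMC; AMC fluorescence increase over 60 s gives rate.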
Marburg entry inh: inhibitors of Marburg virus binding or cell entry; Marburg virus pseudotyped entry inhibition, cell reporter; control for the full effect not named in the record; about a third of the inactives were read at about 46 µM; Potency, µM (highest dose often 37.8 µM), without a hit: at the highest dose activity change, negative = inhibition, most hits filed as inhibitors; 1.8% of 300,000 active; AID 540276; active = well fitted inhibition curve with a large enough effect; inconclusive = small, poorly fitted or top-dose-only effect, or effect the other way; inactive = flat fitted curve, though single readings scatter; tested in HEK293 cells; about a fifth of its hits are not listed in these tables; also: % is scaled to controls: 0 for no effect and ±100 for the full control effect; luciferase read-out
Cruzain inh Det: blocks cruzain activity in presence of Triton detergent; AID 1478; purified cruzain, Z-FR-AMC fluorescence, 0.01% Triton; 0.43% of 200,000 active; Potency, µM, for inactives: max response, negative = inhibition, most hits filed as inhibitors; P25779; active = well fitted curve in the direction sought with a large enough effect; inconclusive = small, poorly fitted or top-dose-only effect, or another doubt; inactive = no such curve, though single readings can be large; an effect the other way counts as inactive or inconclusive;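 also: plate controls were neutral wells for no effect and buffer without enzyme for full effect; nearly all actives have a fitted effect of over 40% in size; top concentration of the series not given in the record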
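Enzyme 1.5 nM, Z-FR-AMC 2 uM, NaOAc 100 mM pH 5.5, DTT 5 mM, Triton X-100 0.01%; 15 min RT compound preincubation; kinetic ex360/em450, 60 s delta.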
SARS PLpro yeast: blocks SARS-CoV papain-like protease in a yeast assay; AID 485353; S. cerevisiae expressing SARS-CoV PLpro, growth rescue; control for the full effect not named in the record; 0.19% of 330,000 active; Potency, µM (top dose mostly 32.9 µM), without a hit: at the top dose activity, positive = growth rescue; also: 0% is about no effect; nearly all actives have a fitted effect of over 55% in size; growth read by luminescence after 48 h
RE007 growth inh: less growth of the S. pombe RE007 Vpr strain. S. pombe RE007 Vpr strain, BacTiter-Glo ATP luminescence, 24 h; control for the full effect not named in the record. 0.21% of 360,000 active. Potency, µM (doses to about 92.2 µM), inactives show top-dose activity change, negative = less growth; active = well fitted falling curve with a large enough effect; inconclusive = small, poorly fitted or top-dose-only effect; inactive = no such curve, though single readings can be large or run the other way;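 also: % is scaled to controls: 0 for no effect and ±100 for the full control effect; nearly all actives have a fitted effect of over 50% in size; the assay follows cell death caused by Vpr and the record does not say whether a fall means rescue or toxicity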
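Fission yeast RE007 carrying one integrated HIV-1 vpr copy, seeded at OD 0.01 in PMG+AL medium with 23 nL pinned compound. Grown 24 h at 30 degrees; viability read by BacTiter-Glo luminescence after 5 min.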
Active calls of the source: *; ? = inconclusive; nt = no result given; & = joins results of further samples; [ ] = dose if it differs, or a comment. Unless noted, calls follow the shape of the dose curve; as a rule, active means well fitted rising curve with a large enough effect; inconclusive means small, poorly fitted or top-dose-only effect; inactive means no such curve, though single readings can be large or run the other way. Potency is read from the fitted curve at half-maximal effect.

SMILES	StopGo reporter	Lassa entry inh	NS1 function inh	Cruzain noTriton	Marburg entry inh	Cruzain inh Det	SARS PLpro yeast	RE007 growth inh
COc1ccc(C(=O)C23CN4CN(CN(C4)C2)C3)cc1	-13%	10%	nt	nt	17%	nt	6%	-10%
O=C(NCC(c1cccs1)N1CCOCC1)c1ccccc1NS(=O)(=O)c1cc([N+](=O)[O-])ccc1Cl (configuration not stated)	-4%	-19%	25%	14%	-6%[46.1 µM]	0.3%	-5%	-5%
C=CCc1cc(C=O)cc(OC)c1OCc1ccc(Cl)cc1	0%	-21%	-24%	-7%	1%	-8.5%	-5%	1%
O=C(CN1C(=O)C2CCCCC2C1=O)OCn1nnc2ccccc2c1=O (configuration not stated)	19%	25%	-6%	nt	16%[46.1 µM]	nt	0%	-3%
CCOc1ccccc1Oc1ncnc2c1oc1ccccc12	-17%	-6%[46.1 µM]	nt	15%	nt	-3.7%	nt	nt
CCc1ccccc1N(CC(=O)N1CCc2ccccc2C1)S(C)(=O)=O	12%	nt	-4%	nt	nt	nt	-1%	-8%
CNC[C@H](CC1CCCCC1)NC[C@H](Cc1ccccc1)NCCC12CC3CC(CC(C3)C1)C2	32µM*	nt	-51%	nt	nt	nt	-7%	73%
CC1(C)CC(=O)c2c(nc3ccccc3c2N)C1	-10%	5%	-6%	2%	6%	-4.4%	2%	-17%
CC(NC(=O)c1ccc(F)cc1)c1ccc2c(c1)CCCC2 (configuration not stated)	-20%	-8%	-15%	2%	-22%	1.2%	-4%	14%
Cc1cc(C)nc(SCCCn2c(=O)[nH]c3ccccc32)n1	-14%	0%	0%	2%	?	2.2%	-1%	15%
CCn1c(O)c(C=Nc2ccc(S(N)(=O)=O)cc2)c(=O)[nH]c1=S	-23%	-6%	8%	?	1%	-5.9%	-7%	-3%
CC(=O)c1ccc(NS(=O)(=O)c2cc(-c3cc(C)no3)ccc2C)cc1	66%[activator]	3%[46.1 µM]	nt	-3%	nt	-1.4%	nt	nt
O=C(CCc1ccccc1)Nc1ccnn1C1CCN(Cc2ncc[nH]2)CC1	-21%	22%[46.1 µM]	-1%	nt	?	nt	2%	14%
COc1ccc(-c2cc(C(=O)Nc3ccccc3N3CCOCC3)c3ccccc3n2)cc1OC	?	?	nt	nt	?	nt	0%	5%
CC(C)N(C(=O)Cn1c(Cl)nc2ccccc21)C(C)C	-24%	6%[46.1 µM]	1%	nt	6%[46.1 µM]	nt	1%	9%
CCOc1ncccc1C(=O)NCc1ccccc1	nt	22%	-5%	15%	-10%	1.8%	-1%	nt
C=CCNC(=S)NNC(=O)c1csc(CC)c1	-1%	14%	8%	2%	0%	1.0%	7%	37%
COc1ccc(OC)c2sc(NC(=O)C3=COCCO3)nc12	-20%	nt	-10%	-17%	nt	-14%	0%	-7%
N/C(=N\OC(=O)COc1ccc(Cl)cc1Cl)c1ccccn1	-4%	nt	-32%	nt	nt	nt	13%	9%
COc1ccc(N(C(=O)C2CSC(=O)C2)C(C(=O)NC(C)(C)C)c2ccncc2)cc1 (configuration not stated)	6%	nt	3%	nt	nt	nt	0%	4%
CCn1c(/C=C/N(C(C)=O)c2ccccc2)[n+](CC)c2ccc(Cl)cc21	-7%	-3%	1%	-4%	-14%	-4.6%	16%	-3%
Cc1ccc(C(c2sc3ncnn3c2O)N2CC(C)CC(C)C2)cc1 (configuration not stated)	13%	-2%	-12%	-1%	7%	-2.0%	-10%	-6%
NC(=O)CSc1nccn1Cc1ccc2c(c1)OCO2	0%	0%[46.1 µM]	5%	nt	1%[46.1 µM]	nt	1%	-17%
CC(C)(C)NC(=O)Cn1nnc(-c2ccccc2Cl)n1	77%[activator]	9%	-23%	3%	29%	2.5%	3%	-26%
Cn1nnnc1SCc1cc(=O)n2ccsc2n1	-11%	-1%	2%	-1%	1%	-0.7%	-30%	-8%
Cc1ccc(NC(=O)CN(C)C(=O)c2sc3cc(Cl)ccc3c2Cl)cc1	-13%	-1%	nt	nt	13%	nt	-1%	-1%
COc1cc(CN2CCCC(C(=O)Nc3cccc(-n4cccn4)c3)C2)ccc1F (configuration not stated)	-16%	?	12%	nt	?	nt	3%	-10%
COc1ccc(S(=O)(=O)N(C)CC(=O)O)c2ccccc12	-15%	3%	4%	-12%	5%	2.1%	3%	3%
CCOC(=O)c1[nH]c(C(=O)O)c(CCN(CC)CC)c1C	nt	-6%	9%	-13%	-9%	4.4%	-1%	5%
NC(=O)NC(=O)COC(=O)CCCc1c[nH]c2ccccc12	-8%	15%	-4%	-1%	-2%	0.5%	1%	-1%
O=C(Cc1ccc(F)cc1)N1CCN(c2ccc(F)cc2)CC1	-10%	?	-21%	nt	-11%	nt	0%	1%
N#Cc1ccccc1-n1c(N)c(C(=O)N2CCCC2)sc1=S	?	?	-122%	-8%	?	-4.9%	-5%	-6%
CCN1C(=O)C(O)(C2COC(C)(C)CC2=O)c2cc(Br)ccc21 (configuration not stated)	nt	?	-8%	-15%	?	-1.5%	-5%	-5%
Cc1ccc(NC(=O)c2ccc(CSc3nnc(C)s3)cc2)c(C)c1	14%	-1%	6%	9%	13%	3.1%	-11%	-1%
Cc1cc(C)c2oc(C(=O)Nc3ccc(S(=O)(=O)N4CCCC(C)C4)cc3)cc(=O)c2c1 (configuration not stated)	-6%	2%	3%	-28%	?	-3.8%	7%	10%
O=C(NCCO)c1nc2ccccc2s1	59%[activator]	22%	0%	-18%	8%	0.1%	3%	2%
CCCCn1c(=O)n(CC2CCC(C(=O)NCCCOC)CC2)c(=O)c2sccc21 (configuration not stated)	-12%	?	nt	6%	nt	-1.3%	nt	nt
COc1ccc(NC(=O)Nc2ccccc2OC)cc1	nt	0%	-47%	-9%	9%	2.6%	-21%	-7%
O=C(Nc1ccc(OCc2ccccc2)cc1)c1cccs1	70%[activator]	nt	1%	nt	nt	nt	-4%	-9%
Cn1c(NCCO)nc2c(c1=O)C1(CCCCC1)Cc1ccccc1-2	-25%	nt	-78%	?	nt	-20%	-5%	8%
COc1ccc(/C=C/C(=O)NCC(=O)N/N=C/c2ccc(OC)cc2)cc1	-2%	?	nt	nt	-6%[46.1 µM]	nt	-2%	-3%
Clc1ccc(Cn2ncc3c(N4CCCCC4)ncnc32)cc1	?	-17%	-63%	7%	-21%[46.1 µM]	-4.4%	-5%	?
COc1ccc(OC)c(C2C(C(C)=O)=C(O)C(=O)N2c2ccc(O)cc2)c1 (configuration not stated)	-4%	11%	?	4%	-3%	-2.8%	-2%	1%
COc1cc(CC(=O)OCC(=O)NC(C)c2ccccc2)cc(OC)c1OC (configuration not stated)	-16%	26%	nt	nt	-2%	nt	0%	15%
CCOC(=O)NC(=O)CSc1nnnn1-c1ccc(Cl)cc1	nt	11%	-6%	8%	-1%	-3.8%	-11%	18%
Cc1c(C(=O)N(C)C2CC(C)(C)NC(C)(C)C2)oc2c(F)cccc12	-3%	-20%	-3%	nt	?	nt	-2%	0%
CC(C)Nc1nc(NC(N)=S)nc(NC(C)C)n1	-16%	9%	10%	0%	?	1.8%	9%	-1%
CCOc1ccc(-c2nnc(SCC(=O)NC3CCCCC3)nc2-c2ccc(OCC)cc2)cc1	-8%	?	nt	-5%	nt	-0.8%	nt	nt
Cc1ccc(NC(=O)CN2C(=O)C3(SCC(=O)N3c3ccc(F)c(F)c3)c3ccccc32)c(C)c1 (configuration not stated)	?	-5%[46.1 µM]	nt	?	nt	-5.9%	nt	nt
COc1ccccc1CNC(=O)C1CCN(S(=O)(=O)c2ccc3c(c2)CC(C)N3C(C)=O)CC1 (configuration not stated)	-16%	-4%[46.1 µM]	-13%	nt	-11%[46.1 µM]	nt	-2%	15%
Carrying on:
SMILES	StopGo reporter	Lassa entry inh	NS1 function inh	Cruzain noTriton	Marburg entry inh	Cruzain inh Det	SARS PLpro yeast	RE007 growth inh
CC(C)N(C(=O)CN(C#N)c1nc(N(C)C)nc(N(C)C)n1)c1ccccc1	0%	3%	?	6%	-1%	0.7%	1%	53%
Cc1nnc(SCC(=O)NCc2ccco2)n1-c1ccccc1	0%	11%	12%	-2%	12%	5.1%	?	39%
CCc1oc(C(=O)O)cc1CN(CC)CC	19%	23%	6%	2%	-7%	0.3%	nt	-9%
CC(C)c1ccc(-c2nc(N3CCCCCC3)nc3n[nH]c(N)c23)cc1	-9%	-18%	?	-2%	-26%	-0.4%	0%	-3%
O=C(/C=C/c1ccccc1)COC(=O)c1ccccc1	1%	0%[46.1 µM]	nt	nt	?	nt	nt	1%
Cc1nn(CC(=O)NCCCN2CCCCC2)c(=O)c2cc(-c3ccccc3)nn12	-12%	nt	1%	nt	nt	nt	-1%	6%
CN(C)c1ccc(/C=C(\C#N)C(=O)c2ccccc2)cc1	36%[activator]	nt	-3%	nt	nt	nt	-1%	-7%
COc1ccc(-c2nn(CCC#N)cc2C(=O)NCc2ccccc2)cc1OC	52%[activator]	nt	16%	nt	nt	nt	0%	2%
O=C(COc1ccccc1F)Nc1ccc2nc(SCC(=O)N3CCc4ccccc43)sc2c1	-12%	11%[46.1 µM]	nt	2%	7%[46.1 µM]	-2.6%	nt	nt
COc1ccc2cc(C(=O)C3CCCN(C(=O)CCc4cnn(C)c4)C3)ccc2c1 (configuration not stated)	5%	-20%[46.1 µM]	-7%	nt	?	nt	-2%	14%
COc1cccc(NC2=CC(c3ccc(C(C)C)cc3)N(c3cccc(OC)c3)C2=O)c1 (configuration not stated)	9%	26%[46.1 µM]	nt	?	0%[46.1 µM]	-7.0%	nt	nt
CCSc1nc(-c2ccc(Cl)cc2)nc2c1Cc1c(CO)cnc(C)c1O2	-2%	0%[46.1 µM]	nt	26%	nt	-1.6%	nt	nt
O=C(O)c1cc(/C=N\O)ccc1OCc1ccccc1	2%	27%	?	5%	14%	3.8%	1%	14%
O=C(CNC1CCCCCC1)Nc1ccccc1N1CCOCC1	1%	nt	-4%	nt	nt	nt	1%	-4%
N#CCOc1coc(CN2CCN(c3cccc(Cl)c3)CC2)cc1=O	-11%	nt	4%	nt	nt	nt	-8%	14%
COc1ccc(-c2cc(C(=O)Nc3cc(OC)cc(C(=O)Nc4cccc(C(F)(F)F)c4)c3)[nH]n2)cc1	-22%&-24%	nt	5%	nt	nt	nt	-3%	-9%&2%
